CDC25B-CDK2 inh: human CDC25B-CDK2/CyclinA binding inhibition; P30305+P24941; AID 1259370; z-score (concentration not given with the values); HTRF CDC25B-CDK2/CyclinA binding, anti-His/anti-Flag; stronger effect = higher value; 0.72% of 94,000 active;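 note: score is relative to mean and SD of negative controls; strong numbers were not always called active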
TAR Tat displ: HIV-1 TAR-Tat binding disruption; 0.6% of 100,000 active; HIV-1 TAR RNA, Tat peptide displacement FRET; stronger effect = higher value; z-score (test concentration not listed); AID 1259389;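 note: score is relative to mean and SD of negative controls; some compounds called inactive have numbers as strong as hits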
Starred values were filed as active, the others as inactive; x = no result given.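 Rule for the calls: active = z-score from 3 up in half or more of its runs; inactive = the rest.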

SMILES	CDC25B-CDK2 inh	TAR Tat displ
CCCCSc1nnc2c(n1)OC(c1ccsc1)Nc1ccc(Br)cc1-2 (configuration not stated)	-11	x
Nc1ccccc1CC(c1c[nH]c2ccccc12)c1c[nH]c2ccccc12	0.6	-0.66
CCCSc1nc2cn(CC)nc2c(=O)n1Cc1ccc(Cl)cc1	x	0.48
Cc1cccc(NS(=O)(=O)c2ccc(-c3cc(C(F)(F)F)on3)s2)c1	x	1
O=C(C1CCN(c2nnc(N3CCCC3=O)s2)CC1)N1CCN(c2ccc(F)cc2)CC1	x	0.69
CC1=C(c2ccc(C)cc2)S(=O)(=O)N(Cc2ccc(C(=O)NCCC3=CCCCC3)cc2)C1=O	x	0.61
CCOc1ccc2nc(NC3=NCN(CCCN4CCOCC4)CN3)nc(C)c2c1	0.72	-1.6
Cc1nc2ncnn2c(C)c1CCC(=O)NC1CCCCC1	-2.9	-1.1
CCCc1cc(C2CCCN2C(=O)Cn2cc(Cl)cn2)no1 (configuration not stated)	x	-0.17
O=C1C=C(NCCSCc2ccccc2Cl)CC(c2ccc3c(c2)OCO3)C1 (configuration not stated)	-1.4	x
O=c1c(S(=O)(=O)c2ccccc2)c[nH]c2ccncc12	1.6	-0.44
CCn1c(=O)n(CC)c2cc(N3CCCC3)c(NS(C)(=O)=O)cc21	-2.4	1
COc1cc(C(=O)Nc2nnc(CCS(=O)(=O)c3ccc(Cl)cc3)s2)cc(OC)c1OC	-4.4	x
CCOc1ccccc1-n1nnc(-c2nc(-c3ccc(Br)cc3)no2)c1N	x	-0.53
Cn1nc(C(F)(F)F)cc1C(=O)Nc1ccc(S(=O)(=O)N2CCCC2)cc1	-1.1	x
CCN(CC)CCCNC(=O)Cn1c2ccccc2c2cn[nH]c(=O)c21	-2.2	x
CC1CCCCN1CCCNC(=O)C1CCCN(c2nnc(-n3cccc3)s2)C1 (configuration not stated)	0.09	0.13
O=C(NCc1noc2ccccc12)Nc1ccc2c(c1)OCO2	0.06	1
Cc1ccc2c(c1)c1c(c(=O)n(-c3ccccc3)c(=O)n1Cc1cc(=O)n3ccccc3n1)n2C	x	0.3
CC1CCN(C(=O)CSc2nc(-c3ccco3)nc3c2c(=O)n(C)c(=O)n3C)CC1	-2.1	x
COCCOC(=O)C1=C(C)N=C2SCCC(=O)N2C1c1ccc(F)cc1 (configuration not stated)	-0.9	2
O=C1CC(C(=O)Nc2cccc(F)c2)n2c(nc3ccccc32)N1 (configuration not stated)	0.96	0.51
COc1ccc(NC(=O)NC(C)c2c(-n3cccc3)sc(C)c2C)cc1 (configuration not stated)	1.8	0.89
O=C(NCCc1cnc[nH]1)c1cc(-c2cccnc2)nc2ccccc12	x	-0.09
Cc1noc(/C=C/c2ccc(Sc3ccc(Cl)cc3)o2)c1[N+](=O)[O-]	2.3	-9.2
CC(=O)N1c2ccc(S(=O)(=O)N3CCC4(CC3)Nc3ccccc3-n3cccc34)cc2CC1C (configuration not stated)	x	0.81
CS(=O)(=O)Nc1cccc(C2=NN(C(=O)c3ccco3)C(c3ccccc3)C2)c1 (configuration not stated)	2.6	x
O=C(CSc1nnc(-c2ccc(Cl)cc2)o1)N1CCc2ccccc21	-2.9	-0.65
Cn1cnnc1SCC(=O)Nc1ccc(F)cc1F	0.08	0.06
Cc1ccc(-c2nc3c4c(C)c(C)n(CC(C)C)c4ncn3n2)cc1	-2.5	1.4
Cn1cc(Cc2nnc(NC(=O)c3ccc(Br)cc3)s2)c2ccccc21	x	-0.24
CCCn1c(Cl)nc2c1c(=O)n(C)c(=O)n2C	-0.75	1
O=c1[nH]c2ncccc2c(=O)n1Cc1cccs1	0.15	1.1
Cc1nnc(SCC(=O)c2c[nH]c3ccccc23)n1-c1ccccc1	-0.49	-3.4
O=C(NC1CCCCC1)c1ccc(CS(=O)c2ccc(Br)cc2)o1 (configuration not stated)	-1.3	0.08
CSCCNC(=O)Nc1ccc(Cl)cc1	-2.1	x
CC(C)(Sc1cc(C(C)(C)C)c(O)c(C(C)(C)C)c1)Sc1cc(C(C)(C)C)c(O)c(C(C)(C)C)c1	x	1.7
O=C(O)CSc1nncc2ccccc12	-0.48	0.73
COC(=O)c1ccc(C2CC(=O)Nc3c2c(=O)nc(SC)n3C)cc1 (configuration not stated)	-1.6	1.9
Cc1nn(C)c2c1c(C(F)(F)F)cc(=O)n2CC(=O)Nc1ccc2c(c1)OCO2	x	-0.17

5 compounds picked at random from those above:
SMILES	CDC25B-CDK2 inh	TAR Tat displ
O=C(CSc1nnc(-c2ccc(Cl)cc2)o1)N1CCc2ccccc21	-2.9	-0.65
CC1=C(c2ccc(C)cc2)S(=O)(=O)N(Cc2ccc(C(=O)NCCC3=CCCCC3)cc2)C1=O	x	0.61
O=C1CC(C(=O)Nc2cccc(F)c2)n2c(nc3ccccc32)N1 (configuration not stated)	0.96	0.51
COc1cc(C(=O)Nc2nnc(CCS(=O)(=O)c3ccc(Cl)cc3)s2)cc(OC)c1OC	-4.4	x
Cc1noc(/C=C/c2ccc(Sc3ccc(Cl)cc3)o2)c1[N+](=O)[O-]	2.3	-9.2

Continuation:
SMILES	CDC25B-CDK2 inh	TAR Tat displ
CCc1nc(-c2csc(S(=O)(=O)N3CCC(C(=O)NC4CCCCC4)CC3)c2)no1	x	1.1
C=CCSc1nc(=O)c2c(n1C)NC(=O)CC2c1ccc(C)cc1C (configuration not stated)	-0.9	0.89
CC1=NS(=O)(=O)c2cc(S(=O)(=O)N3CCOCC3)ccc2N1	x	-6.2
Cc1ccc(-c2nnc(SCc3ccc(F)cc3)o2)cc1	-1.4	0.1
Cc1ccc(N(C)S(=O)(=O)c2ccc3c(c2)NC(=O)C(C)CS3)cc1C (configuration not stated)	x	1.3
OC1CC(c2ccccc2)NC2(CCCCC2)C1 (configuration not stated)	0.56	0.9
O=C(NCc1cccs1)c1cc(-c2ccncc2)n[nH]1	x	2.4
COc1cc2c3c(c1)C(C)CC(C)(C)N3C(=O)C2=O (configuration not stated)	0.94	0.37
COC(=O)c1cnc(Nc2ccccc2)nc1C(F)(F)F	0.03	x
Cc1c(CO)c2ccccc2n1Cc1ccccc1	-1.8	-0.12
CCOc1ccc(-c2[nH]nc3nc(-c4ccc(O)cc4)cc(C(=O)O)c23)cc1	-0.35	1.1
O=c1[nH]c2ccc(NS(=O)(=O)c3cccc4nsnc34)cc2o1	x	-0.23
CC1=NN(C(=O)c2ccc(Cl)cc2)C(O)(C(F)(F)F)C1 (configuration not stated)	0.31	x
COc1ccc(-c2cccc(NS(=O)(=O)c3ccc(F)cc3)c2)nn1	x	0.47
c1cncc(CN2CNc3nc4ccccc4n3C2)c1	-2	-1.1
COc1ccc(-c2[nH]nc3oc(=O)c(CCO)c(C)c23)cc1	-1.6	x
Cc1ccc(-c2noc3ncnc(NCCN4CCOCC4)c23)cc1	x	0.95
CCOC(=O)c1c(NC(=O)C2=CC(c3ccc(C)cc3)=NS(=O)(=O)N2C)sc(C)c1C	-2.5	-2
Brc1ccc(-c2csc(/C=C/C=C/N3CCOCC3)n2)cc1	-2.1	x
O=C1OC(C(=O)Nc2ccc(Cl)cc2)Cc2ccccc21 (configuration not stated)	0.39	x
OC1(c2ccc(Cl)cc2)CCN(Cn2nnc3ccccc32)CC1	-1.9	x
CCOc1cc(C2C3=C(CCCC3=O)N(C)C3=C2C(=O)CCC3)cc(Cl)c1O	-0.94	0.39
O=C(NCc1nnnn1-c1ccc(F)cc1)C1CC(=O)N(c2ccccc2)C1 (configuration not stated)	x	-0.43
CCn1nnc2sc3c(c2c1=O)CCC(C(C)(C)C)C3 (configuration not stated)	-1.2	-0.04
O=C(NC1CC1)C1CCN(c2nnc(N3CCCC3=O)s2)CC1	x	0.19
C=CCOc1ccc(-c2nc3c(c(=O)[nH]2)Cc2cc(F)ccc2O3)cc1	-2	0.92
O=C(c1ccco1)N1CCN(C(=O)c2ccc(Cn3c(=O)c4cccn4c4cccnc43)o2)CC1	x	-0.41
COC(=O)c1sc(=S)n(-c2ccc(C(C)C)cc2)c1N	x	2.7
CC(=O)NC1=NN(C(C)=O)C(c2ccc(OCCOc3ccc(C)cc3)c(Br)c2)S1 (configuration not stated)	1.6	1.4
C/C(N)=N\N(C)c1cccc(F)c1C#N	-1.3	x
O=C(CSc1nc(-c2ccc3c(c2)OCO3)nc2cc(=O)[nH]n12)NCc1ccc(Cl)cc1	x	0.73
CN(C)Cc1c(O)ccc2c(=O)c(-c3ccc(Cl)cc3)c(C(F)(F)F)oc12	-0.36	3.4
c1ccc(CN2CCC(n3c(C4CCCC4)nc4cccnc43)CC2)cc1	x	0.5
O=c1c2cccc3cccc(c32)c2nc3ccccc3n12	-1.6	x
COc1ccc(N(C)C(=O)NCc2noc3ccccc23)c(OC)c1	x	-0.23
Cc1ccccc1-c1nnc(CN2CCN(Cc3ccccc3)CC2)o1	-1.9	-1.1
COc1ccc(-n2c(Cn3c(=O)sc4ccccc43)nnc2SCC(N)=O)cc1	-0.97	x
O=C(NCCc1ccccc1)NCc1cccn1Cc1ccccc1F	x	0.15
C=CCN1C(=S)N(c2ccccc2)C2CS(=O)(=O)CC21 (configuration not stated)	-1	x
COCCCNC(=O)CCc1nnc2ccc(N3CCN(C)CC3)nn12	x	0.47

Complete entries as entered above. Order of screens: CDC25B-CDK2 inh, TAR Tat displ
O=C(CSc1nc(-c2ccc3c(c2)OCO3)nc2cc(=O)[nH]n12)NCc1ccc(Cl)cc1 as listed: x, 0.73
Cc1ccc(-c2nc3c4c(C)c(C)n(CC(C)C)c4ncn3n2)cc1 as listed: -2.5, 1.4

Following part.
SMILES	CDC25B-CDK2 inh	TAR Tat displ
C=CCSC1=C(C#N)C(c2ccc(Cl)cc2)CC(=O)N1 (configuration not stated)	-3	-0.63
O=C(NCC1CCCO1)NC1CCCCC1 (configuration not stated)	-1	2.6
O=C1CC(c2cccc(F)c2)C2=C(CC(c3cccs3)CC2=O)N1 (configuration not stated)	-0.2	1
Cc1nnc(N2CCCC(C(=O)NC3CC3)C2)c2nn(-c3ccc(Cl)cc3)c(C)c12 (configuration not stated)	x	0.33
Fc1ccc(-n2c(Cc3ccsc3)n[nH]c2=S)cc1	-1.1	x
Cc1ccc2c(CC(=O)N(Cc3ccc(F)cc3)C3CCS(=O)(=O)C3)coc2c1C (configuration not stated)	-2	0.68
CCn1c(NCc2c(O)ccc3ccccc23)nc2ccccc21	-0.72	0.26
CCc1cccc(C)c1NC(=O)C(CC)Sc1nnc(C)n2c1cc1occc12 (configuration not stated)	x	0.1
CCCc1nccn1S(=O)(=O)c1cc(Cl)ccc1OC	-1.4	-1.2
NS(=O)(=O)c1ccc(Nc2nc(-c3ccccc3)cs2)cc1	-0.82	x
Cc1cccc(-n2nnc(-c3nc(-c4ccccc4)no3)c2N)c1C	x	-0.33
CCN1CCCC1CNC(=O)c1ccc(N2CCc3ccccc32)s1 (configuration not stated)	x	0.48
O=C(O)C1CCN(S(=O)(=O)c2ccc3c(c2)OCCO3)CC1	1.6	1
O=C(CN1Cc2ccccc2C1=O)N1CCOCC1	x	0.74
CCCCCC(=O)Nc1ncc2c(n1)CC(c1ccc(C(C)(C)C)cc1)CC2=O (configuration not stated)	-3.2	0.27
CCN1CCN(C(=O)c2ccc(CS(=O)c3ccc(Br)cc3)o2)CC1 (configuration not stated)	-1	0.09
COCC(=O)Nc1nc2nc(C)c(C)c(=O)n2[nH]1	-0.02	2.2
C=CCN(C(=O)CSc1nncn2c1cc1sccc12)c1ccccc1	x	2.8
Cc1cc(=O)[nH]c(SCc2c(Cl)cccc2Cl)n1	-0.06	x
Cc1ccc(S(=O)(=O)N2CCCN(c3nc4cc(Cl)ccc4n4cccc34)CC2)cc1	-1.3	0.85

Of the compounds above, these have a furan ring, fused or not.
SMILES	CDC25B-CDK2 inh	TAR Tat displ
CC1CCN(C(=O)CSc2nc(-c3ccco3)nc3c2c(=O)n(C)c(=O)n3C)CC1	-2.1	x
Cc1noc(/C=C/c2ccc(Sc3ccc(Cl)cc3)o2)c1[N+](=O)[O-]	2.3	-9.2
CS(=O)(=O)Nc1cccc(C2=NN(C(=O)c3ccco3)C(c3ccccc3)C2)c1 (configuration not stated)	2.6	x
O=C(NC1CCCCC1)c1ccc(CS(=O)c2ccc(Br)cc2)o1 (configuration not stated)	-1.3	0.08
O=C(c1ccco1)N1CCN(C(=O)c2ccc(Cn3c(=O)c4cccn4c4cccnc43)o2)CC1	x	-0.41
Cc1ccc2c(CC(=O)N(Cc3ccc(F)cc3)C3CCS(=O)(=O)C3)coc2c1C (configuration not stated)	-2	0.68
CCc1cccc(C)c1NC(=O)C(CC)Sc1nnc(C)n2c1cc1occc12 (configuration not stated)	x	0.1
CCN1CCN(C(=O)c2ccc(CS(=O)c3ccc(Br)cc3)o2)CC1 (configuration not stated)	-1	0.09

The list continues.
SMILES	CDC25B-CDK2 inh	TAR Tat displ
CCCCOc1ccc(S(=O)(=O)n2cnc(C)c2)cc1	1.4	1.5
Brc1cccc(CSc2nnc(-c3cccs3)o2)c1	-0.63	2.7
CCCN1CCN(C(=O)C2=C(C)C(=O)OC23CCN(S(=O)(=O)CC)CC3)CC1	x	0.82
Cc1cc(C)cc(OCC(O)CN2CCN(Cc3ccc4c(c3)OCO4)CC2)c1 (configuration not stated)	-0.52	x
COC(=O)c1sccc1NNS(=O)(=O)c1ccc(Cl)cc1	-1.4	x
C=CCSc1nc(=O)c2c(n1C)NC(=O)CC2c1cc(F)cc(F)c1 (configuration not stated)	-1.5	1.6
CCCN1CCN(c2cc(NC(C)C)c3c4c(onc24)-c2ccccc2C3=O)CC1	-1.1	-1.3
CCCCC(=O)Nc1ccc2nc(SCc3cc(=O)n4ccsc4n3)sc2c1	x	0.95
Cc1noc(C)c1-c1nnc(-c2c(C)nn(-c3ccccc3)c2C)o1	-0.54	x
C=CCOc1cccc(C2c3c(-c4cc(C)ccc4O)n[nH]c3C(=O)N2CC=C)c1 (configuration not stated)	1.5	0.15
O=c1c2ccccc2ncn1-c1ccc2nsnc2c1	-1	x
Cc1ccc2scc(N3CC(C)CC(C)C3)c(=O)c2c1 (configuration not stated)	x	1.1
Cc1cccc(NS(=O)(=O)c2ccc(NS(=O)(=O)c3ccc4c(c3)OCCO4)cc2)c1	-1.2	x
N/C(Cc1cccs1)=N\O	-3.5	x
